Screening data as filed in PubChem BioAssay.
HCMV NEC inh = cytomegalovirus nuclear egress complex inhibition | HTRF UL50-UL53 interaction, normalized percent inhibition | 190,000 compounds, 0.15% hits | inhibition, % (no concentration beside the values) | AID 1918969;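 active = both replicates at 50% or more, plus weaker picks with an unusually low signal ratio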;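 also: stock transfer was 100 nL into about 20 µL; 0% = negative control wells and 100% = wells with untagged competitor protein; inactives centre near -12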
GIV Gai3 FP = GIV-Galpha-i interaction inhibition. P08753. Galpha-i3/FITC-GIV peptide fluorescence polarization, 90 min; active compounds read low; scaled: aluminum fluoride 0%, vehicle 100%. percent of control (FP), % (test concentration not listed). 210,000 compounds, 0.42% hits. AID 1224905;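 active = replicate mean at 85% of control or lower, very high polarization wells dropped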;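 also: lower values mean more displacement of the GIV peptide from Galpha-i3; wells of about 15 µL received 100 nL stock; the first replicate is given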
Target sequence (P08753 whole entry, looked up): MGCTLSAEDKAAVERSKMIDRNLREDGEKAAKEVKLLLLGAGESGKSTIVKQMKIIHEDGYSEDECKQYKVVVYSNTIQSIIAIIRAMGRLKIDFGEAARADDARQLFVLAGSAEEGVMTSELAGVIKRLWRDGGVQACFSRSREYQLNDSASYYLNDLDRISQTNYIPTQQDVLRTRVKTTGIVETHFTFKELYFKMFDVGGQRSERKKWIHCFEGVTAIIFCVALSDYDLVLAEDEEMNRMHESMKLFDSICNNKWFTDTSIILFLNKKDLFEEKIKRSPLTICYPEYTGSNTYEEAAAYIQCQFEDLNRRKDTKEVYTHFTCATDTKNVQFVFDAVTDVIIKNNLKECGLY
Sa growth 42C = blocks Staphylococcus aureus growth; S. aureus RN4220 growth, OD600, 20 h, 42 °C; active compounds read low; relative growth, % (test concentration not listed); 170,000 compounds, 0.53% hits; AID 720641;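 active = growth at 42 °C up to 50% and 20 or more points under that at 30 °C, or under 10% at both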;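 also: 300 nL library stock went into each well; scaled to the means of positive and negative controls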
Sa growth 42C second temp = second read-out of Sa growth 42C, no call of its own (marks repeat the call); relative growth, %; measured here: growth at 30 °C;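 optical density after 20 h as mean of two plates; 100% = untreated growth and lower means inhibition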
An asterisk follows results filed as active; · = not tested or not shown; & = joins results of further samples.

Values in the order – GIV Gai3 FP, HCMV NEC inh, Sa growth 42C second temp, Sa growth 42C
O=C(CSc1nnnn1-c1ccccc1)c1ccc2c(c1)OCO2
 : 114.7, -6.2, 60.4, 89.4
CC(=O)N(Cc1nc(-c2ccccc2)no1)C1CCCCC1
 : 100.0, 1.5, 92.0, 99.1
CC1=NOC(=O)/C1=C\c1cccs1
 : 108.0, 2.0, 65.2, 88.1
O=C(c1ncc[nH]1)c1cccs1
 : 103.1, -27.7, 91.6, 104.2
c1ccc(-c2noc(-c3cccnc3)n2)cc1
 : 99.4, -5.7, ·, ·
Cc1cc(=O)n2[nH]c(CNc3ccc(F)cc3)nc2n1
 : 110.4, -26.1, ·, ·
CC(C)Sc1ccc2nnc(-c3cccnc3)n2n1
 : 104.7, -29.5, 79.3, 82.3
CC(=O)NC1c2ccccc2Oc2ccccc21
 : 104.8, -0.2, 76.3, 119.3
COCCOC(=O)C1=C(C)NC2=C(C(=O)CC(c3ccc(OC)c(OC)c3)C2)C1c1ccccc1OC(C)C (stereo unspecified)
 : 102.2, -7.8, ·, ·
CCOC(=O)C(C)Oc1cccc2c(=O)n(CC(=O)NC3CCCCC3)ccc12 (stereo unspecified)
 : 100.4, -10.2, 84.0, 118.9
Cc1ccccc1-c1nc2scc(CCNC(=O)c3ccc4c(c3)OCO4)n2n1
 : 100.0, -3.3, ·, ·
Cc1nc2c(-c3ccc(F)cc3)c(C)nn2c(C)c1CC(=O)N1CCC(C)CC1
 : 105.2, -13.3, ·, ·
Cc1ccc2nc(SCC(=O)Nc3ccccc3C(F)(F)F)[nH]c2c1
 : 99.5, -1.2, ·, ·
O=C(NCc1ccco1)c1ccc2c(c1)N(Cc1ccc(Cl)cc1)C(=O)c1ccccc1S2
 : 102.3, ·, 95.9, 97.2
CCOc1ccc(-n2c(SCC(=O)Nc3ccc(F)cc3)nc3c([nH]c4ccccc43)c2=O)cc1
 : 95.5, ·, 88.5, 122.0
Cc1cc2cc(CNC(=O)c3ccc4ccccc4c3)ccc2[nH]1
 : 102.9, ·, 89.3, 130.3
CN(C)CCNc1cc(-c2cccnc2)nc2ccccc12
 : 100.9, -21.4, 88.1, 97.9
CC(C)(C)C1CCc2c(sc3nc(CCC(=O)NCc4ccccn4)[nH]c(=O)c23)C1 (stereo unspecified)
 : 90.7, -4.1, ·, ·
CSc1nc(-c2ccccc2)ccc1C(N)=O
 : 104.0, -11.5, 101.1, 114.0
Cc1c(C(=O)N2CCCCC2)sc(N)c1C#N
 : 99.0, -8.4, 83.6, 98.4
CCC(=O)N1CCc2cc(Br)cc(S(=O)(=O)Nc3c(C)n(C)n(-c4ccccc4)c3=O)c21
 : 104.9, 2.9, 93.0, 98.5
N#CCC(=O)NN=C1CCCCCCCCCCC1
 : 97.2, -3.7, 106.6, 85.0
CCC1(C)CC(CCN2C(=O)c3ccccc3C2=O)(c2ccc(C)cc2)CCO1 (stereo unspecified)
 : 112.3, ·, 93.4, 83.1
O=c1c(-c2ccccc2)c(N2CCc3ccccc3C2)c1=O
 : 107.9, -69.2, ·, ·
O=C(NCC1CC1)c1ccccc1NS(=O)(=O)c1ccc(F)cc1F
 : 96.5, -7.0, 81.0, 121.5
CC(=O)OCC(=O)c1cc(C(F)(F)F)cc(C(F)(F)F)c1
 : 105.4, -7.2, 91.2, 119.6
CCOC(=O)c1c(C)[nH]c(C)c1S(=O)(=O)N1CCCC(C(=O)N2CCN(c3cccc(C)c3C)CC2)C1 (stereo unspecified)
 : 107.7, ·, 30.9, 43.0
CCCCNC(=O)CCc1c(C)nc2nc(NCc3ccc(C)cc3)[nH]n2c1=O
 : 99.2, -7.9, ·, ·
O=C(NCCc1c[nH]c2ccccc12)c1ccc(N2C(=O)CCS2(=O)=O)cc1
 : 107.1, -1.5, ·, ·
COc1cc(C(=O)Nc2nonc2-c2ccc(C)c(C)c2)cc(OC)c1OC
 : 96.5, -8.7, 86.4, 103.1
COC(=O)c1cc2sc(Cl)cc2n1CC(=O)Nc1cc(C)cc(C)c1
 : 102.3, -25.9, 91.4, 140.1
Nc1c(C(=O)NCc2ccco2)nnn1-c1ccc(Cl)cc1
 : 98.1, 5.5, 82.7, 86.8
COc1ccccc1NC(=O)CSC1=Nc2ccccc2C2=NC(CCC(=O)NCCc3ccccc3)C(=O)N12 (stereo unspecified)
 : 103.8, ·, 85.0, 92.0
C=C(C)CN(CC)Cc1cc(OC)cc(OC)c1
 : 102.1, -9.5, 105.9, 129.1
CCC(C(=O)NC(C)C)n1cnc2onc(-c3ccc(Cl)cc3)c2c1=O (stereo unspecified)
 : 102.0, -16.8, ·, ·
Cc1ccc(CCNC(=O)C2CCN(c3nnc(-n4cccc4)s3)CC2)cc1
 : 100.1, -16.7, 84.9, 92.9
CCN1CCN(C(=O)C(c2ccccc2)c2ccccc2)CC1
 : ·, -31.4, 91.4, 120.1
Cc1cc2oc3c(c(=O)c2cc1C)C(c1cccc(Oc2ccccc2)c1)N(CCCN(C)C)C3=O (stereo unspecified)
 : 109.9, -67.0, ·, ·
CCn1c2ccccc2c2cc(CN3CCN(Cc4ccc(Cl)cc4)CC3)ccc21
 : 106.7, -60.4, 54.8, 93.8
CCOC(=O)COc1nc(C)cc(C)n1
 : 106.3, -5.0, 88.8, 94.6
Cc1cc(C(=O)NCC2COc3ccccc3O2)c2ccccc2n1 (stereo unspecified)
 : ·, -11.2, 92.6, 107.2
CCOC(=O)c1noc2ncn(C(CC)C(=O)N3CCCCC3)c(=O)c12 (stereo unspecified)
 : 103.7, -21.9, ·, ·
O=C(CSc1nnc(OC(=O)c2cccs2)n1C1CC1)c1ccc2c(c1)OCCO2
 : 104.1, 18.7, 95.0, 119.0
CCn1cc(C(CC(=O)O)C(=O)O)c2ccccc21 (stereo unspecified)
 : 107.6, 11.7, 98.9, 94.9
Cc1ccc(/C=C/c2onc(C)c2S(=O)(=O)N2CCC(C(=O)N3CCN(c4ccccc4F)CC3)CC2)cc1
 : 102.4, ·, 106.7, 113.0

5 records drawn at random from those above:
Values in the order – GIV Gai3 FP, HCMV NEC inh, Sa growth 42C second temp, Sa growth 42C
Cc1ccc(CCNC(=O)C2CCN(c3nnc(-n4cccc4)s3)CC2)cc1
 : 100.1, -16.7, 84.9, 92.9
COc1ccccc1NC(=O)CSC1=Nc2ccccc2C2=NC(CCC(=O)NCCc3ccccc3)C(=O)N12 (stereo unspecified)
 : 103.8, ·, 85.0, 92.0
CCOC(=O)c1noc2ncn(C(CC)C(=O)N3CCCCC3)c(=O)c12 (stereo unspecified)
 : 103.7, -21.9, ·, ·
C=C(C)CN(CC)Cc1cc(OC)cc(OC)c1
 : 102.1, -9.5, 105.9, 129.1
Cc1cc(C(=O)NCC2COc3ccccc3O2)c2ccccc2n1 (stereo unspecified)
 : ·, -11.2, 92.6, 107.2

Arranged by SMILES length (high to low): part of the list above
Values in the order – GIV Gai3 FP, HCMV NEC inh, Sa growth 42C second temp, Sa growth 42C
COCCOC(=O)C1=C(C)NC2=C(C(=O)CC(c3ccc(OC)c(OC)c3)C2)C1c1ccccc1OC(C)C (stereo unspecified)
 : 102.2, -7.8, ·, ·
Cc1ccccc1-c1nc2scc(CCNC(=O)c3ccc4c(c3)OCO4)n2n1
 : 100.0, -3.3, ·, ·
CC(C)Sc1ccc2nnc(-c3cccnc3)n2n1
 : 104.7, -29.5, 79.3, 82.3

(more compounds)
Values in the order – GIV Gai3 FP, HCMV NEC inh, Sa growth 42C second temp, Sa growth 42C
COc1ccc(OC)c(NC(=O)c2cc3c(n(-c4ccc(Cl)cc4)c2=O)CC(C)(C)CC3=O)c1
 : 99.8, -30.9, 86.4, 101.1
COc1ccc(CCn2cnc3c([nH]c4ccc(F)cc43)c2=O)cc1OC
 : 102.6, -28.8, ·, ·
COc1cc(S(=O)(=O)N2CCN(c3cc(C)ccc3C)CC2)c(OC)cc1Cl
 : 100.0, -3.7, 102.5, 112.5
Cc1ccc2c(=O)cc(C(=O)Nc3ccc(S(=O)(=O)N4CCCCC4)cc3)oc2c1C
 : 99.0, -5.3, 89.6, 103.8
Cc1oc(-c2ccccc2)nc1C(=O)Nc1ccccc1C(=O)NC1CC1
 : ·, 0.9, 92.1, 94.8
CC1CCCN(CCCNC(=O)c2nn(C)c3c2CCc2sccc2-3)C1 (stereo unspecified)
 : 101.2, -12.9, ·, ·
COc1ccc(NC(=O)C2=C(C)Nc3c(C(=O)Nc4ccc(C)cc4)cnn3C2c2cccc(Cl)c2)cc1 (stereo unspecified)
 : 98.0, ·, 85.8, 95.1
O=C(O)CCS(=O)(=O)c1ccc2[nH]c(=O)c(=O)[nH]c2c1
 : 95.6, 1.3, 93.5, 83.1
Fc1ccc(F)c(Nc2c3c(nc4ccc(Cl)cc24)CCC3)c1
 : 106.9, -21.1, 71.0, 68.7
CC12CCCCN1CCCc1c2[nH]c2ccccc12 (stereo unspecified)
 : 110.9, -35.2, 92.9, 107.4
COc1cccc(NC(=O)c2oc3ccccc3c2NC(=O)COc2ccccc2C)c1
 : 104.2, 13.7, 101.1, 89.4
Cc1[nH]c2ccccc2c1C=Nc1ccc(N=Cc2c(C)[nH]c3ccccc23)cc1
 : ·, -51.1, 51.1, 74.0
Cc1ccc(CSc2nc3ccc(C(=O)N4CCN(c5ccccc5)CC4)cc3n2C)cc1
 : 108.4, ·, 92.8, 116.0
CCCN1C(C(=O)c2ccccc2)=C(OC(=O)C(C)(C)C)c2ccccc2S1(=O)=O
 : 106.1, -7.1, 74.7, 86.2
O=S(=O)(/N=C(/NC(=S)OC1CCCCC1)c1ccccc1)c1ccccc1
 : 106.3, ·, 71.4, 75.8
COc1ccc(-c2cn3c(n2)sc2cc(C(=O)NCCCc4ccccc4)ccc23)cc1
 : 108.5, ·, 93.0, 96.0
O=S1(=O)CC(c2ccccc2)CS(=O)(=O)C12CCCC2
 : 100.9, -5.4, 78.8, 108.1
O=C1COc2ccc(-c3cc(-c4ccc(Cl)cc4)c4c(n3)-c3ccccc3OC4)cc2N1
 : 108.0, -9.6, 106.3, 90.6
CCCC(=O)N1CCN(c2ccc(NC(=S)NC(C)=O)cc2Cl)CC1
 : 104.1, -13.2, 86.5, 97.8
CCCCN(C)C(=O)c1cn(CC)c2nc(C)ccc2c1=O
 : 98.5, ·, 85.5, 82.9
Cc1ccc(NC(=O)Cn2c(=O)n(CCC(=O)NCc3ccccc3Cl)c(=O)c3ccccc32)cc1
 : 100.1, 1.8, 83.9, 106.4
COCc1cc(=O)oc2cc(NS(=O)(=O)c3ccc(C)cc3)ccc12
 : 97.0, -2.9, 52.8, 113.6
CC(C)C(=O)c1c(O)c2ccccc2oc1=O
 : 94.6, ·, 80.9, 95.5
Cc1nn(Cc2ccccc2Cl)c2sc(C(=O)NC3CC3)cc12
 : ·, -10.0, 91.8, 86.4
CS(=O)(=O)N1CCC(c2noc(-c3ccc(C(F)(F)F)cc3)n2)CC1
 : 96.7, ·, 84.2, 94.1
N#CCSc1ccc2nnc(CCNS(=O)(=O)c3ccccc3)n2n1
 : 102.6, ·, 79.3, 92.4
CCOC(=O)Cn1c(=N)n(Cc2ccc(Cl)c(Cl)c2)c2ccccc21
 : 100.4, ·, 36.2, 114.9
CC1CCN(S(=O)(=O)c2ccc3c(ccc(=O)n3CC(=O)NCc3ccccc3Cl)c2)CC1
 : 95.0, ·, 84.5, 113.7
CCN(CC)c1ccc(/C=N/NC(=O)c2ccccc2)cc1
 : 101.2, -63.9, 102.1, 94.0
CC1Cn2cc(C(=O)Nc3cccc(F)c3)c(=O)c3c(Cl)ccc(c32)O1 (stereo unspecified)
 : 98.1, ·, 88.5, 98.5

Complete entries as entered above. Order of values: GIV Gai3 FP | HCMV NEC inh | Sa growth 42C second temp | Sa growth 42C
COCc1cc(=O)oc2cc(NS(=O)(=O)c3ccc(C)cc3)ccc12 is listed with 97.0 | -2.9 | 52.8 | 113.6
COc1ccc(-c2cn3c(n2)sc2cc(C(=O)NCCCc4ccccc4)ccc23)cc1 is listed with 108.5 | · | 93.0 | 96.0

2 entries from above in a different format:
SMILES: O=S1(=O)CC(c2ccccc2)CS(=O)(=O)C12CCCC2
  GIV Gai3 FP = 100.9
  HCMV NEC inh = -5.4
  Sa growth 42C second temp = 78.8
  Sa growth 42C = 108.1
SMILES: CCN(CC)c1ccc(/C=N/NC(=O)c2ccccc2)cc1
  GIV Gai3 FP = 101.2
  HCMV NEC inh = -63.9
  Sa growth 42C second temp = 102.1
  Sa growth 42C = 94.0

Continued.
Values in the order – GIV Gai3 FP, HCMV NEC inh, Sa growth 42C second temp, Sa growth 42C
C=CCN1CCN(Cc2nnnn2Cc2ccc(OC)cc2)CC1
 : 104.6, 3.2, 88.0, 87.9
C/C(=N/O)c1ccc2c(c1)OCCO2
 : 100.1, -3.1, 81.2, 101.3
Cc1ccc(N(C)S(=O)(=O)c2c(-c3ccccc3)csc2C(=O)O)cc1
 : 101.1, -4.9, 94.1, 94.0
O=C(c1ccc(Cl)cc1)N1CCC(c2nc3ccccc3o2)CC1
 : 104.1&105.0, -34.1&-14.3, 84.1, 94.2
O=C(NCCc1csc(-c2ccc(F)cc2)n1)c1c(F)cccc1Cl
 : 110.4, ·, 98.5, 115.2
Cc1cc(C)n(C2CC(=O)N(N(C)C)C2=O)n1 (stereo unspecified)
 : 101.4, -16.6, 92.3, 104.3
Cc1ccc2[nH]c3c(=O)n(Cc4ccccc4)cnc3c2c1
 : 105.9, -12.1, ·, ·
Cc1ccc(C)c(NC(=O)CSC2=NC3C(=O)N(C)C(=O)N(C)C3N2C)c1 (stereo unspecified)
 : 102.5, -22.9, 90.7, 98.3
